Mtb MbtI inh = blocks the Mycobacterium tuberculosis siderophore enzyme MbtI. purified MbtI enzyme, fluorescence intensity read-out. inhibition, %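 (about 17 µg/mL by stock and volumes)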. hit rate 0.89% among 100,000;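 active means above 50% in both replicates, above 80% if mildly self-fluorescent; inactive means the rest, strongly fluorescent compounds included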;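 further: 0% = mean of negative and 100% = mean of positive controls; one replicate is shown; some compounds called inactive have numbers as strong as hits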
Target sequence (P9WFX0 whole entry, looked up): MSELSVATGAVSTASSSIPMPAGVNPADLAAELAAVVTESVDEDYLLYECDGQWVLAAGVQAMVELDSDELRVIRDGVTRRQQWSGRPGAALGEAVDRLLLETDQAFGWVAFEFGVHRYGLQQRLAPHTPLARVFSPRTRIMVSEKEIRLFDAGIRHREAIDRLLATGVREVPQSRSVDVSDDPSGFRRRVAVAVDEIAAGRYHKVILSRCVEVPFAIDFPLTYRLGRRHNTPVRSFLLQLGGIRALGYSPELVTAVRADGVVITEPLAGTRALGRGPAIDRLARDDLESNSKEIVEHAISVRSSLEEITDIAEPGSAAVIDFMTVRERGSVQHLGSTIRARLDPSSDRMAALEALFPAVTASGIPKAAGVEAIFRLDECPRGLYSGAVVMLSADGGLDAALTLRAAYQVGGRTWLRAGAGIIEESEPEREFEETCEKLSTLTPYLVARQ
* = called active by the depositor. Not all compounds are listed, so the mix of outcomes need not match the whole.

mol	Mtb MbtI inh
O=C(O)c1csc(-c2ccccc2)c1Cc1ccccc1	-6.3
O=C(O)C1CC1c1ccc(Br)cc1 (stereo not given)	-8.1
CC(C)C(=O)Nc1ccc(C(=O)Oc2ccccc2)c(O)c1	-96.7
Cc1nn(-c2cccc(C(=O)O)c2)c(=O)c2ccccc12	-3.4
COc1ccc(NC(=O)Cn2ccc3ccccc3c2=O)cc1OC	23.2
CC1CCC(=O)C(C(CC(=O)c2ccccc2)c2ccc3c(c2)OCO3)C1 (stereo not given)	-17.5
COc1cccc(OCCNC(=O)Cc2cccc3ccccc23)c1	0.3
Cn1c2c(c(=O)n(C)c1=O)C(c1ccc(Cl)cc1)C(C#N)=C(N)O2 (stereo not given)	-7.2
O=C1CCCc2nc(Nc3nc4ccccc4s3)ncc21	8.7
Cc1ccc(C2CC(=O)c3cnc(N4CCOCC4)nc3C2)cc1 (stereo not given)	0.0
CC(C)(C)C(=O)Nc1c2c(nn1-c1cccc(Cl)c1)CS(=O)C2 (stereo not given)	-10.4
COc1cccc(-c2nnc3n2CC(C)S3)c1 (stereo not given)	-3.1
COC(=O)c1c(C)oc2ccc(O)cc12	-16.5
CCCCn1cnc2sc3c(c2c1=N)CCCC3	0.1
Cc1sc(CO)c(Sc2ccccc2)c1C(=O)O	-3.8
CC(C)c1ccc(-c2c(C#N)c(N)nc3c2CCC3)cc1	-21.9
O=C(CNC(=O)c1cccs1)OCc1ccc(Cl)cc1	-13.2
CCOC(=O)c1sc2ccccc2c1NC(=O)c1coc2ccccc2c1=O	-16.1
Nc1cc(-c2ccccc2)nn1-c1ccccc1	-14.0
CC(C)Oc1nnnn1-c1ccccc1	-16.8
CCCNC(=O)c1ccccc1NC(=O)C(C)Oc1ccc(Cl)cc1 (stereo not given)	10.0
CC1Cc2cc(C(=O)O)ccc2O1 (stereo not given)	-7.8
COc1ccc(-n2[nH]c(C)cc2=O)cc1	-7.2
O=C(NC1CC1)c1ccc(COc2ccc(F)cc2)o1	-14.1
CC(C)Cc1ccc(C(C)C(=O)Nc2nccs2)cc1 (stereo not given)	-0.7
Cc1ccc2oc(-c3ccccc3)nc2c1	39.1
CCc1ccc2[nH]c3sc(C)nc3c2c1	-11.3
O=C(CCSCc1ccccc1Cl)NCc1ccco1	-7.5
CC1CC(C)(C)NC(=S)N1CC(=O)N(C)Cc1ccccc1 (stereo not given)	5.2
CCC(=O)OC1=C2C(=Nc3c(c(=O)n(C)c(=O)n3C)C2c2ccccc2)c2ccccc21 (stereo not given)	-1.8
COc1cc(NC(=O)C(CC(C)C)NC(=O)C2CCCCC2)cc(OC)c1OC (stereo not given)	-3.7
O=C(c1cc(Sc2ccc(Cl)cc2)nc2ccccc12)N1CCC2(CC1)OCCO2	0.0
Cc1c2c(c(C)n1C)C(C(=O)NC1CCCCC1)N(Cc1ccccc1)C2=O (stereo not given)	-14.1
CCc1ccc(-c2cn3c4ccccc4nc3n2CCO)cc1	-126.1
CCOc1cc2c(cc1OCC)-n1cccc1C(c1ccc(F)cc1)NC2 (stereo not given)	2.0
CC(C)C(NC(=O)C1CCCCC1)C(=O)NC1CCCC(C)C1C (stereo not given)	-14.2
CCOC(=O)c1[nH]c(C)c(CN(C2CCCCC2)S(C)(=O)=O)c1C	-17.6
Cc1ccc(OCCCC(=O)N2CCOCC2)cc1	-3.3
CC(Oc1cccc(Cl)c1)C(=O)NCc1ccc2c(c1)OCO2 (stereo not given)	-15.1
COc1ccc(CC(C(=O)O)C(=O)O)cc1OC	-5.0
CC(=O)Nc1ccc(C(=O)c2ccccc2)c(O)c1	8.0
O=C1CSC(c2ccc3c(c2)OCO3)N1 (stereo not given)	-5.0
O=C(Nc1nc2ccccc2[nH]1)c1ccc(F)cc1	82.2
CC(C)(C)NC(=O)COc1ccc(CNc2ncn[nH]2)cc1	2.0
COc1cccc(C(=O)OC2CC(C)N(C)CC2C)c1 (stereo not given)	-2.5
Clc1ccc(-c2csc3ncnc(-n4ccnc4)c23)cc1	-8.8
Cc1sc2ncn(CC(=O)NCC(=O)O)c(=O)c2c1C	-9.0
C/C=C/c1ccc2c(c1)OCO2	-5.8
O=c1ccn(Cc2ccccc2)c(=O)n1Cc1ccccc1	3.2
O=C(O)c1ccc(-n2ncc(Cl)c(Cl)c2=O)cc1	-3.1

Rewritten field by field: 2 of the compounds above
COc1ccc(-n2[nH]c(C)cc2=O)cc1
- Mtb MbtI inh: -7.2

O=C(NC1CC1)c1ccc(COc2ccc(F)cc2)o1
- Mtb MbtI inh: -14.1

Other structures follow.
mol	Mtb MbtI inh
N#CCCn1c(=O)n(CCC#N)c2ccccc21	-9.2
CCOc1ccccc1CN(C)CCc1ccccn1	-8.2
COc1ccccc1NC(=O)c1cc2cc(Br)ccc2oc1=N	-5.8
O=C(CN1C(=O)c2ccccc2C1=O)OCc1nc2ccccc2s1	-5.8
Cc1ccc2oc(=O)cc(CSc3cnc4ccccc4n3)c2c1	-13.5
O=C1CC2CS(=O)(=O)CC2N1C1CCCCC1 (stereo not given)	-3.6
COC(=O)CSc1nc(C)c2c(n1)CCCC2	-0.8
Cc1cc(N)n(C2CCCCC2)n1	-16.3
CCC(C#N)(C(N)=O)c1ccccc1 (stereo not given)	-11.1
O=C(O)C1C2C=CC(C2)C1C(=O)N1CC=C(c2ccccc2)CC1 (stereo not given)	-8.8
COc1ccc(Cc2c(Cl)ncnc2Cl)cc1	-5.5
CCn1cc(C(=O)Nc2ccc(CC#N)cc2)c(C)n1	-9.4
Cc1c(NCc2ccccc2)cccc1C(=O)O	-155.2
CCCOc1cccc(C(=O)Nc2c[nH]c(=O)[nH]c2=O)c1	-8.2
C/C(=C\c1nsc(Nc2ccccc2)n1)NCc1ccc(C)cc1	-4.3
O=C(CC(Cc1ccccc1)C(=O)O)Nc1ccccc1 (stereo not given)	0.1
C=CCn1ncc(Cc2cnn(CC=C)c2C)c1C	-5.4
CCC(C)NC(=O)C1c2cc(OC)c(OC)cc2C(=O)N(C)C1c1ccc(OC)c(OC)c1 (stereo not given)	1.5
COc1ccc2c(c1)C(=NO)c1cc(OC)ccc1-2	-4.7
O=C(O)c1ccc(S(=O)(=O)Cc2ccccc2)cc1	8.2
CC(=O)OCC12CC=C(C)C(C1)C(c1ccccc1OC(C)=O)OC2 (stereo not given)	-4.5
CC1CN(C)C(C)CC1OC(=O)c1ccccc1Cl (stereo not given)	-0.9
Cn1c(C(=O)O)c(CC(=O)N2CCCCCC2)c2ccccc21	-2.1
O=C(c1c[nH]c2ccccc12)C1CCCCC1	-3.6
Cc1ccc(O)c(CN2CCN(c3ccccc3)CC2)c1	-7.9
COc1ccc(CNCc2ccc(OC)c(C)c2)cc1	-10.7
CCC(C)(C(=O)NC1CCCCC1)N(Cc1cccs1)C(=O)c1ccccn1 (stereo not given)	1.4
c1ccc(-c2nc3ccccc3o2)nc1	93.9
CSc1nn(CCc2ccncc2)c(=S)s1	26.4
CCOC(=O)CCc1c(C)nc2ncnn2c1C	-0.6
O=C(O)Cc1nnn(C2CCCCC2)n1	-3.8
Cc1ccccc1OCC(=O)NCc1ccccc1	-1.5
Cc1nnc(-c2ccccc2)nn1	-1.7
CCC1CCCCN1C(=O)Cc1ccc(Cl)cc1 (stereo not given)	-10.4
O=c1c2c(nc(NCCO)n1-c1ccccc1)-c1ccccc1CC21CCCC1	-69.4
CC(C)CCNC(=O)c1cc(Sc2ccc(F)cc2)nc2ccccc12	8.4
O=C(Nc1nnc(N2CCCCCC2)s1)c1csc2c1CCCC2	-9.9
CSC1=C(C#N)C(C)CC(=O)N1 (stereo not given)	3.8
CCOc1ccc(CCNC(=O)C2CC(C)=CCC2C(=O)O)cc1OCC (stereo not given)	-17.9
O=C(CN1CCOCC1)OCCCC1CCCCC1	-15.1
CCOC(=O)c1nc(N)c(=O)n(-c2ccccc2)n1	-4.1
COc1ccc(C(O)c2nccn2Cc2ccccc2)cc1 (stereo not given)	-2.3
O=C(O)C1CCC(CNCc2cccc(Br)c2)CC1 (stereo not given)	-9.7
COc1ccccc1C(=O)C(O)c1ccccc1OC (stereo not given)	-2.6
O=C(O)C1C2C=CC(O2)C1C(=O)NC1CCCc2ccccc21 (stereo not given)	-12.8
CC(C)CC(=O)Nc1ncnc2c1C(=O)CC(C)(C)C2	-7.2
CCOC(=O)COc1ccc2cc(-c3nc4ccccc4[nH]3)c(=O)oc2c1	-17.4
COC(=O)Nc1ccccc1C(=O)N1CCCCC1	-8.6
CC1=CC(C)C(COC(=O)CN2CCOCC2)C(C)C1 (stereo not given)	-8.4
O=C(O)c1cnn(-c2ccccc2)c1-n1cccc1	-7.8

New compounds follow.
mol	Mtb MbtI inh
Clc1ccc(NCC2CCCCC2)nn1	-3.8
CCOc1ccc(Cc2nc(C)c(CC(=O)N3CCCCC3)c(=O)[nH]2)cc1	-15.1
CCOc1ccc(-c2nc3cc(N)ccc3o2)cc1	-75.7
CN(C(=O)CSc1nc2cc(C(=O)O)ccc2c(=O)n1Cc1ccccc1)C1CCS(=O)(=O)C1 (stereo not given)	53.8
CNC(=O)c1ccc2c(c1)N=C(C)c1c(C)ccc(C)c1S2	-10.4
O=C(Cc1coc(-c2ccc(F)cc2)n1)N1CCOCC1	-13.8
CCN(CC)C(=O)CSc1nc(O)cc(=O)n1-c1ccc(OC)cc1	-9.1
Cc1cccc(N(C)S(=O)(=O)c2cccc3nsnc23)c1	-1.0
O=c1[nH]c2ccccc2c(=O)n1-c1ccccc1	13.2
COc1ccc(OC)c(S(=O)(=O)N2CC(C)N(S(=O)(=O)c3cc(OC)ccc3OC)CC2C)c1 (stereo not given)	-10.7
COc1ccc(-c2cc3nc(Cc4ccccc4)cc(=O)n3[nH]2)cc1	-16.8
CN(C1CCCCC1)S(C)(=O)=O	-7.0
CN(CCc1ccccn1)Cc1ccccc1F	1.4
N#Cc1ccccc1OCC(=O)NCCc1ccccc1	0.7
OCCNc1cc(-n2nc(-c3ccccc3)cc2-c2ccccc2)ncn1	-18.4
O=C(O)c1ccccc1C(=O)NCC(O)COc1ccc2ccccc2c1 (stereo not given)	11.8
CC1C(C#N)=C(SCC(=O)c2ccc(Cl)cc2)NC2=C1C(=O)CC(C)(C)C2 (stereo not given)	11.9
Cc1ccc(C(=O)c2cncc(Br)c2)cc1	-15.6
Cc1ccc(C(=O)NC2CCCCCC2)cc1N1CCCC1=O	-10.6
CC(=O)N(Cc1ccccn1)Cc1ccco1	3.6
CCc1ccc(C(=O)COC(=O)c2cnccn2)cc1	-3.2
O=C(CS(=O)(=O)c1nnnn1C1CCCCC1)Nc1ccc(F)cc1	-14.9
O=C(O)COc1cccc(-c2nc3ccccc3s2)c1	5.8
CC1(C)CC(=O)C2=C(C1)C(c1cccnc1)c1c([nH]c(=O)[nH]c1=O)N2 (stereo not given)	-1.1
C1=CC2C(C1)C1CC2C2N=NN(c3ccccc3)C12 (stereo not given)	-1.7
O=c1c2cc(Cl)ccc2nc2ccc(N3CCCC3)nn12	-8.8
FC(F)(F)c1cc(-c2ccccc2)nc(N2CCN(c3ccccc3)CC2)n1	-8.3
CCc1ccc(NC(=S)N(CCCN2CCCCC2)Cc2cccs2)cc1	11.4
COc1ccc(C2CC(=O)C=C(NCC(C)C)C2)cc1 (stereo not given)	-0.7
COC(=O)CS(=O)(=O)c1ccc2c(c1)CC(=O)N2	-13.4
Cc1cc(NC(=O)CCS(=O)(=O)c2nc(-c3ccc4c(c3)OCO4)cc(C(F)(F)F)n2)no1	56.1
O=C1c2ccccc2C(O)(c2ncc[nH]2)N1CCO (stereo not given)	-15.8
O=C(OCc1ccccc1)Sc1nnc(-c2ccc(Br)cc2)o1	-4.4
OCCN1CCN(CCSc2ccccc2)CC1	-11.4
CCOc1ccccc1N1C(=O)CC(Nc2ccccc2)C1=O (stereo not given)	0.1
COc1cc(CO)cc(Br)c1OCC(=O)O	-3.0
O=C(CC1Sc2ncnn2C1=O)Nc1ccc(Br)cc1 (stereo not given)	99.3*
c1ccc(-c2nc3c([nH]2)CCc2nonc2-3)cc1	-16.2
CC(C)(C)c1cc(Cc2ccccc2)[nH]n1	-12.7
CC(CN1CCN(Cc2ccccc2)CC1)OC(=O)c1cccs1 (stereo not given)	-6.7
CC(=O)N1C(c2ccccc2)CC(=O)OC1c1ccc2c(c1)OCO2 (stereo not given)	-28.9
CC(=O)N1CCc2cc(S(=O)(=O)CCC(=O)O)ccc21	-7.5
O=C(Oc1ccccc1)OC1C=CS(=O)(=O)C1 (stereo not given)	-3.7
O=C(Cn1cnc2ccccc2c1=O)Nc1ccc(Oc2ccccc2)cc1	-5.2
CN(Cc1ccccc1)C1CCN(Cc2ccc(Cl)cc2)CC1	-2.8
O=C(CCOc1ccccc1)NCc1ccccc1	-7.6
CCC(Sc1nnnn1-c1ccccc1)C(=O)Nc1ccccc1OC (stereo not given)	-6.4
Cc1ccc2[nH]c(C)c(CCC(=O)NC3CCCCC3)c2c1	-19.2
O=C(Cc1ccccc1)Nc1nccs1	15.8
CC1CN(CCO)Cc2ccc(Cl)cc21 (stereo not given)	-10.5

Next part
mol	Mtb MbtI inh
C=CCOc1ccc(-c2nc3c(sc(=S)n3C)c(=O)[nH]2)cc1OC	-7.8
COC1(NS(=O)(=O)c2ccc(C)cc2)C(C)=CC(=O)C=C1C	93.7*
Cc1ccc(N2CCN(c3ccccc3)CC2)nn1	-9.5
COc1cccc(C2C(C(=O)O)c3ccccc3C(=O)N2C)c1 (stereo not given)	-0.1
Cc1nc2ncnn2c(C)c1CCC(=O)O	-14.0
COc1ccc(NC(=O)CSc2nc3ccccc3[nH]2)c(OC)c1	-1.4
